# Screening results from PubChem.
# A1 apoptosis 2 – A1 inhibition read as caspase activation; MEF A1-2A-BIM cells, caspase-Glo luminescence, 3 h; percent of clofoctol response, DMSO zero; caspase activation, % (test concentration not listed); 24,000 tested, under 10 active; AID 2465; in the data active = caspase activation above about 5.9%;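 also: wells of about 30 µL received 50 nL stock; the first replicate is given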
#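 system = A1-2A-BIM-expressing MEF cells | quantity = 2500 MEF cells/well | dosing = 50 nL compound per well, pinned | schedule = overnight cell settling, then 3 h compound exposure, 37 °C | signal = luminescence from DEVD-luciferin Caspase-Glo reagent, 1:1 in 50 mM HEPES, 1 h RT | read-out = Caspase-3/7 activation, seen as rise in luminescence signal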
# Active calls of the source: *. Some of the compounds tested; the hit share may differ from the screen's.
molecule	A1 apoptosis 2
C[C@H](CO)N1C[C@H](C)[C@H](CN(C)S(=O)(=O)c2ccc(Cl)cc2)Oc2ccc(NC(=O)Cn3cnnn3)cc2CC1=O	2.5
Cc1noc(C)c1S(=O)(=O)Nc1cccc2c1O[C@@H](CN(C)CC1CCCCC1)[C@@H](C)CN([C@H](C)CO)C2=O	-1.5
C[C@H](CO)N1C[C@H](C)[C@@H](CN(C)Cc2ccncc2)Oc2ccc(NC(=O)NC3CCCCC3)cc2CC1=O	-0.1
CC(C)NC(=O)Nc1ccc2c(c1)CC(=O)N([C@H](C)CO)C[C@@H](C)[C@H](CN(C)C(=O)NC1CCCCC1)O2	1.8
C[C@@H]1CN([C@@H](C)CO)C(=O)c2cc(NS(=O)(=O)c3ccc(F)cc3)ccc2O[C@@H]1CN(C)C(=O)Nc1ccc2c(c1)OCO2	-0.2
C[C@H]1CN([C@@H](C)CO)C(=O)c2cccc(NS(=O)(=O)c3ccc(F)cc3)c2O[C@@H]1CN(C)Cc1ccncc1	1.8
C[C@@H]1CCCCO[C@H](CN(C)S(C)(=O)=O)[C@@H](C)CN([C@H](C)CO)C(=O)c2cc(NS(=O)(=O)c3ccc(Cl)cc3)ccc2O1	-0.4
CC(=O)n1cc([C@@H]2C=C(C(=O)NCc3nc4ccccc4[nH]3)O[C@H](OCCCCO)C2)c2ccccc21	0.2
C[C@@H]1CN([C@H](C)CO)C(=O)c2cc(NC(=O)Nc3ccc(C(F)(F)F)cc3)ccc2O[C@@H](C)CCCCO[C@H]1CN(C)S(=O)(=O)c1ccccc1	0.9
C[C@H]1CN([C@@H](C)CO)C(=O)c2cccc(NC(=O)CCCCCC(=O)Nc3ccccc3N)c2O[C@H]1CN(C)C(=O)Nc1ccc2c(c1)OCO2	-0.4
C[C@@H]1CCCCO[C@@H](CN(C)C(=O)C2CCCCC2)[C@@H](C)CN([C@@H](C)CO)C(=O)c2cc(NS(C)(=O)=O)ccc2O1	-0.8
COc1ccccc1CN(C)C[C@@H]1OCc2cnnn2CCCC(=O)N([C@@H](C)CO)C[C@@H]1C	1.0
COc1ccc(S(=O)(=O)N(C)C[C@H]2Oc3ccc(NC(=O)C4CC4)cc3CC(=O)N([C@H](C)CO)C[C@H]2C)cc1	0.0
Cc1ccc(S(=O)(=O)Nc2ccc3c(c2)CC(=O)N([C@H](C)CO)C[C@@H](C)[C@@H](CN(C)Cc2ccccc2)O3)cc1	-0.1
C[C@@H]1CN([C@H](C)CO)C(=O)Cc2cc(NC(=O)C3CC3)ccc2O[C@@H]1CN(C)C(=O)Nc1cccc2ccccc12	1.1
COc1ccc(NC(=O)N(C)C[C@@H]2OCCCC[C@@H](C)Oc3ccc(NC(=O)c4ccncc4)cc3C(=O)N([C@@H](C)CO)C[C@H]2C)cc1	1.2
C[C@@H]1CCCCO[C@@H](CN(C)S(=O)(=O)c2cn(C)cn2)[C@@H](C)CN([C@H](C)CO)C(=O)c2cc(NC(=O)c3ccncc3)ccc2O1	0.7
Cc1noc(C)c1NC(=O)N(C)C[C@H]1Oc2ccc(NS(=O)(=O)c3cn(C)cn3)cc2C(=O)N([C@H](C)CO)C[C@@H]1C	1.1
C[C@@H]1CCCCO[C@H](CN(C)S(=O)(=O)c2ccccc2)[C@H](C)CN([C@@H](C)CO)C(=O)c2cc(NS(=O)(=O)c3cccs3)ccc2O1	-0.3
CNC[C@H]1Oc2ccc(NC(=O)c3ccncc3)cc2CC(=O)N([C@@H](C)CO)C[C@H]1C	0.7
C[C@H](CO)N1C[C@H](C)[C@H](CN(C)C)OCCCC[C@H](C)Oc2ccc(NC(=O)CCC(F)(F)F)cc2C1=O	-0.5
CC(C)NC(=O)N(C)C[C@@H]1OCCCC[C@@H](C)Oc2ccc(NS(=O)(=O)c3ccccc3)cc2C(=O)N([C@@H](C)CO)C[C@@H]1C	0.1
COc1ccc(NC(=O)Nc2ccc3c(c2)C(=O)N([C@@H](C)CO)C[C@H](C)[C@@H](CN(C)S(=O)(=O)c2ccc(C)cc2)OCCCC[C@H](C)O3)cc1	-0.4
C[C@@H]1CN([C@@H](C)CO)C(=O)c2cc(NS(=O)(=O)c3cccs3)ccc2O[C@H]1CN(C)Cc1ccc(Cl)c(Cl)c1	-1.0
COc1ccc(CN(C)C[C@H]2Oc3ccc(NC(=O)Nc4ccc(C(F)(F)F)cc4)cc3C(=O)N([C@H](C)CO)C[C@@H]2C)cc1	-0.7
COc1ccc(CN(C)C[C@@H]2OCCCC[C@@H](C)Oc3ccc(NS(=O)(=O)c4cccs4)cc3C(=O)N([C@@H](C)CO)C[C@H]2C)cc1	0.0
C[C@H](CO)N1C[C@H](C)[C@H](CN(C)S(=O)(=O)c2cn(C)cn2)Oc2c(NC(=O)C3CCOCC3)cccc2C1=O	0.6
COc1ccc(NC(=O)N(C)C[C@@H]2Oc3ccc(NS(=O)(=O)c4ccccc4)cc3C(=O)N([C@@H](C)CO)C[C@H]2C)cc1	0.8
C[C@H]1CN([C@@H](C)CO)C(=O)c2cc(NC(=O)Cn3cnnn3)ccc2O[C@@H]1CN(C)C(=O)Nc1cccc2ccccc12	0.6
Cc1noc(C)c1S(=O)(=O)N(C)C[C@@H]1OCc2cnnn2CCCC(=O)N([C@@H](C)CO)C[C@@H]1C	1.3

# An excerpt from above in order of length of the SMILES, largest number first.
molecule	A1 apoptosis 2
C[C@@H]1CN([C@H](C)CO)C(=O)c2cc(NC(=O)Nc3ccc(C(F)(F)F)cc3)ccc2O[C@@H](C)CCCCO[C@H]1CN(C)S(=O)(=O)c1ccccc1	0.9
C[C@@H]1CCCCO[C@H](CN(C)S(=O)(=O)c2ccccc2)[C@H](C)CN([C@@H](C)CO)C(=O)c2cc(NS(=O)(=O)c3cccs3)ccc2O1	-0.3
C[C@@H]1CCCCO[C@H](CN(C)S(C)(=O)=O)[C@@H](C)CN([C@H](C)CO)C(=O)c2cc(NS(=O)(=O)c3ccc(Cl)cc3)ccc2O1	-0.4
CC(C)NC(=O)N(C)C[C@@H]1OCCCC[C@@H](C)Oc2ccc(NS(=O)(=O)c3ccccc3)cc2C(=O)N([C@@H](C)CO)C[C@@H]1C	0.1
COc1ccc(NC(=O)N(C)C[C@@H]2Oc3ccc(NS(=O)(=O)c4ccccc4)cc3C(=O)N([C@@H](C)CO)C[C@H]2C)cc1	0.8
Cc1ccc(S(=O)(=O)Nc2ccc3c(c2)CC(=O)N([C@H](C)CO)C[C@@H](C)[C@@H](CN(C)Cc2ccccc2)O3)cc1	-0.1
C[C@H](CO)N1C[C@H](C)[C@H](CN(C)S(=O)(=O)c2ccc(Cl)cc2)Oc2ccc(NC(=O)Cn3cnnn3)cc2CC1=O	2.5
C[C@H](CO)N1C[C@H](C)[C@H](CN(C)S(=O)(=O)c2cn(C)cn2)Oc2c(NC(=O)C3CCOCC3)cccc2C1=O	0.6

# (cont.)
molecule	A1 apoptosis 2
C[C@@H]1CCCCO[C@@H](CN(C)Cc2ccncc2)[C@@H](C)CN([C@@H](C)CO)C(=O)c2cc(NC(=O)Nc3ccccc3)ccc2O1	0.0
CC(C)NC(=O)N(C)C[C@H]1OCCCC[C@H](C)Oc2ccc(NC(=O)c3ccncc3)cc2C(=O)N([C@@H](C)CO)C[C@@H]1C	0.4
C[C@H](CO)N1C[C@H](C)[C@H](CN(C)S(=O)(=O)c2ccccc2)Oc2ccc(NS(=O)(=O)c3ccc(F)cc3)cc2C1=O	-1.0
Cc1noc(C)c1S(=O)(=O)N(C)C[C@@H]1Oc2c(NS(=O)(=O)c3ccc(F)cc3)cccc2C(=O)N([C@H](C)CO)C[C@@H]1C	-0.4
C[C@@H]1CCCCO[C@@H](CN(C)S(=O)(=O)c2ccc(Cl)cc2)[C@@H](C)CN([C@H](C)CO)C(=O)c2cc(NC(=O)Cc3ccccc3)ccc2O1	-0.6
CNC[C@H]1Oc2ccc(NC(=O)c3ccncc3)cc2C(=O)N([C@@H](C)CO)C[C@@H]1C	-0.8
C[C@H](CO)N1C[C@H](C)[C@@H](CN(C)Cc2ccc(-c3ccccc3)cc2)Oc2c(NC(=O)CCCCCC(=O)Nc3ccccc3N)cccc2C1=O	0.6
C[C@@H]1CN([C@@H](C)CO)C(=O)c2cc(NS(=O)(=O)c3cn(C)cn3)ccc2O[C@H]1CN(C)C(=O)Nc1ccc2c(c1)OCO2	0.1
Cc1noc(C)c1S(=O)(=O)N(C)C[C@@H]1OCCCC[C@@H](C)Oc2ccc(NC(=O)NC(C)C)cc2C(=O)N([C@H](C)CO)C[C@@H]1C	0.9
COc1ccc(NC(=O)N(C)C[C@@H]2Oc3ncc(C#CCN(C)C)cc3C(=O)N([C@H](C)CO)C[C@@H]2C)cc1	-0.4
Cc1noc(C)c1NC(=O)Nc1ccc2c(c1)C(=O)N([C@@H](C)CO)C[C@H](C)[C@@H](CN(C)C(=O)CCCN(C)C)OCCCC[C@@H](C)O2	-1.2
C[C@H](CO)N1C[C@H](C)[C@H](CN(C)S(=O)(=O)c2ccc(Cl)cc2)OCCCC[C@H](C)Oc2ccc(NS(=O)(=O)c3ccc(Cl)cc3)cc2C1=O	-0.3
Cc1noc(C)c1NC(=O)N(C)C[C@@H]1OCCCC[C@H](C)Oc2ccc(N(C)C)cc2C(=O)N([C@H](C)CO)C[C@@H]1C	0.4
C[C@@H]1CCCCO[C@@H](CN(C)C(=O)C2CCCCC2)[C@H](C)CN([C@@H](C)CO)C(=O)c2cc(NC(=O)Nc3ccccc3)ccc2O1	0.3
COc1ccc(S(=O)(=O)Nc2cccc3c2O[C@H](CN(C)S(=O)(=O)c2c(C)noc2C)[C@@H](C)CN([C@@H](C)CO)C3=O)cc1	1.5
C[C@H](CO)N1C[C@H](C)[C@@H](CN(C)CC2CC2)Oc2ccc(NC(=O)C3CCCCC3)cc2CC1=O	-1.1
COc1ccc(NC(=O)N(C)C[C@H]2Oc3ccc(NS(=O)(=O)c4ccc(F)cc4)cc3C(=O)N([C@@H](C)CO)C[C@H]2C)cc1	-0.4
C[C@@H]1CCCCO[C@H](CN(C)Cc2ccc(C(=O)O)cc2)[C@@H](C)CN([C@@H](C)CO)C(=O)c2cc(NC(=O)Cc3ccccc3)ccc2O1	1.5
C[C@@H]1CCCCO[C@H](CN(C)S(=O)(=O)c2cccs2)[C@@H](C)CN([C@H](C)CO)C(=O)c2cc(NC(=O)c3ccccc3)ccc2O1	0.1
Cc1noc(C)c1NC(=O)N(C)C[C@@H]1OCCCC[C@H](C)Oc2ccc(N(C)C)cc2C(=O)N([C@H](C)CO)C[C@H]1C	-0.6
O=C(Nc1ccccc1O)C1=C[C@H](c2coc3ccccc3c2=O)C[C@H](OCCCCO)O1	-0.3
COc1ccc(NC(=O)N(C)C[C@H]2OCCCC[C@@H](C)Oc3ccc(NS(=O)(=O)c4ccc(OC)cc4)cc3C(=O)N([C@@H](C)CO)C[C@H]2C)cc1	-0.5
C[C@@H]1CN([C@H](C)CO)C(=O)c2cccc(NS(=O)(=O)c3ccccc3)c2O[C@H]1CN(C)Cc1ccc(-c2ccccc2)cc1	-1.1
C[C@@H]1CN([C@H](C)CO)C(=O)c2cc(NC(=O)Nc3ccccc3)ccc2O[C@@H](C)CCCCO[C@H]1CN(C)C(=O)Nc1ccc(C(F)(F)F)cc1	0.0
COc1ccc(NC(=O)Nc2ccc3c(c2)CC(=O)N([C@@H](C)CO)C[C@@H](C)[C@@H](CN(C)C(=O)Nc2ccc(C(F)(F)F)cc2)O3)cc1	-0.5
C[C@@H]1CCCCO[C@H](CN(C)S(=O)(=O)c2ccccc2)[C@H](C)CN([C@H](C)CO)C(=O)c2cc(NS(=O)(=O)c3ccc(Cl)cc3)ccc2O1	-0.1
C[C@H](CO)N1C[C@H](C)[C@H](CN(C)Cc2ccc(C(=O)O)cc2)OCCCC[C@H](C)Oc2ccc(NC(=O)C3CCCCC3)cc2C1=O	0.8
C[C@@H]1CCCCO[C@H](CN(C)C(=O)Nc2ccc(F)cc2)[C@@H](C)CN([C@@H](C)CO)C(=O)c2cc(NC(=O)NC3CCCCC3)ccc2O1	0.3
O=C(OC[C@@H]1[C@H]2c3ccccc3OC1(CO)N=C1SCc3ccccc3CN12)c1ccccc1	-0.1
C[C@@H]1CN([C@H](C)CO)C(=O)c2cc(NC(=O)CCC(F)(F)F)ccc2O[C@@H](C)CCCCO[C@H]1CN(C)S(=O)(=O)c1ccccc1	-1.6
C[C@H]1CN([C@@H](C)CO)C(=O)c2cc(NS(=O)(=O)c3ccccc3)ccc2O[C@H]1CN(C)C(=O)NC1CCCCC1	1.1
C[C@H](CO)N1C[C@H](C)[C@@H](CN(C)S(=O)(=O)c2cccs2)Oc2c(NS(C)(=O)=O)cccc2C1=O	0.1
COc1ccc(NC(=O)Nc2ccc3c(c2)C(=O)N([C@@H](C)CO)C[C@@H](C)[C@@H](CN(C)CC2CCCCC2)O3)cc1	-0.5
C[C@@H]1CN([C@@H](C)CO)C(=O)Cc2cc(NC(=O)Nc3cccc4ccccc34)ccc2O[C@H]1CN(C)Cc1ccc(Cl)c(Cl)c1	0.9
C[C@@H]1CN([C@@H](C)CO)C(=O)c2cc(NC(=O)c3ccncc3)ccc2O[C@@H](C)CCCCO[C@@H]1CN(C)C(=O)CCCN(C)C	0.0
C[C@@H]1CN([C@@H](C)CO)C(=O)c2cccc(NC(=O)c3nc4ccccc4s3)c2O[C@H]1CN(C)CC1CC1	-0.3
C[C@H](CO)N1C[C@H](C)[C@H](CN(C)CC2CCCCC2)Oc2c(NC(=O)c3nc4ccccc4s3)cccc2C1=O	-0.5
Cc1ccc(S(=O)(=O)N(C)C[C@@H]2OCc3cnnn3CCCC(=O)N([C@H](C)CO)C[C@H]2C)cc1	0.5
CC(C)NC(=O)N(C)C[C@@H]1OCCCC[C@H](C)Oc2ccc(NC(=O)Nc3ccccc3)cc2C(=O)N([C@H](C)CO)C[C@@H]1C	0.0
